Assay outcomes as filed in PubChem.
eIF4H FP inh – human eIF4H binding inhibitors, primary screen, translation initiation inhibitor project, biochemical, uHTS, fluorescence polarization. Eukaryotic translation initiation factor 4H (Homo sapiens), Q15056. eIF4H fluorescence polarization binding assay. inhibition, % at 35 µM. 290,000 tested, 0.94% active. AID 2012, 2009;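 active means 50% or more with normal probe brightness, or confirmed in later tests; inconclusive means above 50% with abnormal brightness, or retests that disagree; inactive means below 50% or failed in later tests; about a fifth of its hits are not listed in these tables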;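 further: calls also rest on retests at 20 µM and on dose response follow-up; 0% = protein and probe with vehicle and 100% = probe without protein; strong numbers were not always called active; many hits fall short of the cut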
HIV Env fusion – inhibitors of HIV-1 Env-driven cell-cell fusion, primary screen, HeLa-JRFL effector, CEM21 target cells, luciferase; inhibition, % at 12.3 µM; 360,000 tested, 1.1% active; AID 651610, 2012;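 active means mean replicate inhibition score of at least 50 and every replicate individually at or above 50; inconclusive means only one of the two criteria met; inactive means mean below 50 and not all replicates reaching 50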;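 further: 0% = plate neutral controls and 100% = maraviroc near 300 nM; one replicate is shown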
MT1-MMP act inh – blockers of MT1-MMP proenzyme processing, primary screen, HT1080 RFP-PRO-GFP cells, GFP/RFP fluorescence | GFP/RFP ratio fluorescence, overnight; percent of plate control window, DMSO zero | 360,000 tested, 0.061% active | Matrix metalloproteinase-14 (Homo sapiens), P50281 | GFP/RFP ratio change, % at 20 µM | AID 651647, 2012;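 active means GFP/RFP ratio change of at least 30% with cell ATP level not reduced by more than half and red fluorescence within 50% of control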; further: strong numbers were not always called active
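Assay system: HT1080 RFP-PRO-GFP cells | Dosing: 20 µM single dose, 1% DMSO | Incubation: Cells overnight before dosing, compound overnight, 37 °C, 5% CO2 | Evaluation: GFP/RFP fluorescence ratio | Control set: DMSO-only wells and HT1080 RFP-L50D-GFP cell wells as references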
UUG fidelity – modulators of yeast start codon fidelity, primary screen, whole organism, S. cerevisiae, single point, plate reader; 350,000 tested, 0.13% active; S. cerevisiae UUG-firefly luciferase reporter, luminescence/redox ratio; activity score, % at 18.7 µM;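 active means replicate mean at a twofold rise or more, about +100% in these data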;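 further: firefly luciferase made from a UUG start codon reports start codon fidelity; reporter light over untreated wells divided by growth signal over untreated wells; some hits fall short of that in this replicate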
CSC inhib – cancer stem cell viability inhibitors, primary screen, luminescence; cancer stem cell-like cells viability; 300,000 tested, 1.1% active; inhibition, % at 7.5 µM; AID 2717, 2010;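 active means mean at 75% or more and at least half the replicates too; inconclusive means mean and replicates disagree; tested in HMLE shEcad cells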;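 further: 0% = median of negative and 100% = median of positive control wells; the first replicate is given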
PABP polyA inh – PABP poly(A) RNA binding inhibitors, primary screen, biochemical, fluorescence polarization, uHTS; inhibition, % at 35 µM; 290,000 tested, 1% active;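 active means 50% or more with normal probe brightness, or confirmed in later tests; inconclusive means above 50% with abnormal brightness, or retests that disagree; inactive means below 50% or failed in later tests; about a fifth of its hits are not listed in these tables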;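 further: calls also rest on retests at 20 µM and on dose response follow-up; controls were probe without protein and protein plus probe with vehicle; some compounds called inactive have numbers as strong as hits; many hits fall short of the cut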
Target sequence (P11940 whole entry, looked up): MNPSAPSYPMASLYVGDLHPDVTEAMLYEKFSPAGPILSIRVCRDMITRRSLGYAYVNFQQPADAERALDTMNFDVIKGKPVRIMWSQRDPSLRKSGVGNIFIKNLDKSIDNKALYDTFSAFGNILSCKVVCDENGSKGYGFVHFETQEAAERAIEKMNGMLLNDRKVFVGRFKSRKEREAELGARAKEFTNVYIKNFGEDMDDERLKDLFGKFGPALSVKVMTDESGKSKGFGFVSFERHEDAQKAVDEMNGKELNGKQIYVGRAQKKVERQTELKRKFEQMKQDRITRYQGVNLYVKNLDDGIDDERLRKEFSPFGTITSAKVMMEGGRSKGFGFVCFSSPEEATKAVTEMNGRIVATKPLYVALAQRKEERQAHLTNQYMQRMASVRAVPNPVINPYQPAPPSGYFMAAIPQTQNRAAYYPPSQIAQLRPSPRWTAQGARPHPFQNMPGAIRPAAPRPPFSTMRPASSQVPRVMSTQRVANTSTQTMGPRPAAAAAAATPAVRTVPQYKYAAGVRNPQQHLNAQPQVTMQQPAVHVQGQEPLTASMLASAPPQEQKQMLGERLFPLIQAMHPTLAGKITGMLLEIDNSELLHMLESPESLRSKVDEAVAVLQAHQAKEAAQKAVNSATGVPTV
Rce1 inh – yeast Rce1p protease inhibitors, primary screen, biochemical, fluorescence, cell-free homogeneous | yeast membranes, quenched prenylated peptide cleavage fluorescence | AID 2563, 2010 | calls only | CAAX prenyl protease 2 (Saccharomyces cerevisiae (strain ATCC 204508 / S288c)), Q03530 | 290,000 tested, 0.27% active;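 active means fall in fluorescence gain of 50% or more versus controls, with final raw signal at or below 3038400; inconclusive means same 50% fall but final raw signal above 3038400; inactive means fall in fluorescence gain under 50%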;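 further: plate controls were neutral control wells for no effect and wells lacking membranes for full effect; tested at 10 µM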
Target sequence (Q03530 whole entry, looked up): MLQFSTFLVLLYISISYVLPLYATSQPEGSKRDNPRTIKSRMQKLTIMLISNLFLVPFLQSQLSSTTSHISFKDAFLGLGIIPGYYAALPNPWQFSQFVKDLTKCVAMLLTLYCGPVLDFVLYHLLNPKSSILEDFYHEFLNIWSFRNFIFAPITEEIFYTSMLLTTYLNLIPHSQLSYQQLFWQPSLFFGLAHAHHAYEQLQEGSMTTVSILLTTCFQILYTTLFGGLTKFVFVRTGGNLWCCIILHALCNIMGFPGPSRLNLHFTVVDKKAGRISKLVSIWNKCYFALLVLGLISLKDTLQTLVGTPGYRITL
eIF4H FP inh retest – further read-out of eIF4H FP inh, marked with its call; inhibition, %; compound at 20 µM; confirmation average;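 mean of two retest wells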
PABP polyA inh retest – second read-out of PABP polyA inh, no call of its own (marks repeat the call); inhibition, %; compound at 20 µM; confirmation repeats;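 mean of two retest wells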
MT1-MMP act inh RFP – recorded beside MT1-MMP act inh, whose call it bears; RFP signal change, %; measured here: RFP expression control read;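 0 = vehicle wells; hits needed this value within 50% of zero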
* hit, by the source's call; i = inactive; ? = inconclusive; . = not tested or not shown. A portion of the library; rates above refer to the full screens.

SMILES	eIF4H FP inh	HIV Env fusion	MT1-MMP act inh	MT1-MMP act inh RFP	UUG fidelity	CSC inhib	PABP polyA inh	Rce1 inh	others
CCn1c(SCC(=O)N2CCN(c3ccccc3)CC2)nnc1-c1c[nH]c2ccccc12	0	65*	-5	-27	-17	61	-12	i
COc1ccc(CNC(=O)CSc2nnc3c(n2)[nH]c2ccc(C)cc23)cc1	1	-19	0	-3	9	-9	-27	i
Cc1cc(=O)oc2cc(OCC(=O)OCC(=O)NCCc3ccccc3)ccc12	-1	3	4	5	.	-13	16	i
N#Cc1ccc(-c2ccc(OCC(=O)NCC(=O)Nc3ccc(F)c(F)c3F)cc2)cc1	-9	24	.	.	-22	-12	-7	i
Cc1ccc(C(=O)C2CCN(CC(=O)Nc3ccccc3C)CC2)cc1	2	4	-2	-5	4	.	9	i
COc1ccc(OCC(O)CNS(=O)(=O)c2ccc(NC(C)=O)cc2)cc1 (stereo not given)	-3	.	0	-1	-4	-2	7	i
Cc1ccc(OCC(=O)N2CC3(C)CC2CC(C)(C)C3)cc1 (stereo not given)	-8	-21	0	-3	-1	-11	-22	i
CSc1ccccc1NC(=O)c1ccccc1N(C)S(C)(=O)=O	8	12	4	2	-9	-11	0	i
CNC(=O)c1ccc(-c2ccccc2)s1	-7	.	3	1	-6	7	-6	i
Cn1c(SCC(=O)N2CCc3ccccc32)nc2cccnc21	-13	.	-1	-9	-18	-24	0	i
CN(Cc1ccccc1)Cc1cc(=O)oc2ccc3ccccc3c12	.	22	-4	-3	-10	.	.	.
CCCOc1cc(C)c(Cl)cc1S(=O)(=O)N(CC)CC	-5	-33	-5	-9	-14	-3	-10	i
CC(C)Oc1ccc(C2C(C(=O)c3ccco3)=C(O)C(=O)N2Cc2cccnc2)cc1 (stereo not given)	-12	-35	6	5	-20	1	10	i
Cc1ccc(S(=O)(=O)N2CCN(C(=O)c3ccc(Br)o3)CC2)c(C)c1	-8	3	-2	-2	5	7	0	i
COc1ccc(NC(=O)Nc2ccccn2)cc1OC	-2	-2	-3	-3	.	-19	7	i
CCN(CC)S(=O)(=O)c1ccc(C(=O)N2CCN(C(=O)c3ccco3)CC2)cc1	.	.	1	2	-23	-7	.	.
COCc1nnc(NC(=O)CS(=O)(=O)Cc2ccccc2)s1	-7	.	-5	-7	6	-12	-5	i
Cc1ccc(C(C(=O)NC2CCCC2)N(C(=O)CNC(=O)c2ccco2)c2ccccc2)o1 (stereo not given)	-6	17	0	5	-2	16	2	i
O/N=C/c1ccccc1Oc1ccccc1	-10	.	-1	2	-18	-4	-11	i
CCCCN(C)C(=O)Cn1cnc2sc(C)c(S(=O)(=O)N3CCN(c4ccccc4OC)CC3)c2c1=O	-11	20	0	2	-3	-13	4	i
Cc1[nH]c2ccccc2c1C(=O)/C=C\c1ccccc1Cl	0	i	-3	-12	.	-11	-12	i
COc1ccc(N2CCN(C3CC(=O)N(Cc4ccc(N5CCCC5=O)cc4)C3=O)CC2)cc1 (stereo not given)	-4	.	-6	-10	4	-6	-6	i
COc1ccc(Nc2oc(-c3ccccc3F)nc2C#N)cc1	-1	-98	3	0	.	20	4	i
CC(=O)Oc1ccc(C2OC(=O)c3ccccc3N2C(C)=O)cc1 (stereo not given)	-9	-25	2	5	-9	0	1	i
O=C(NC1CCCC1)C(c1ccsc1)N(C(=O)Cc1cccs1)c1cccc(F)c1 (stereo not given)	-2	.	0	0	0	-1	12	i
Fc1ccc(-c2csc3ncnc(Nc4ccc(N5CCOCC5)cc4)c23)cc1	-9	?	-8	-10	-7	-6	6	i
COc1ccc(OC)c(NC(=O)/C=C/c2ccc(S(=O)(=O)N3CCOCC3)cc2)c1	.	-3	5	-3	16	.	.	.
Cc1nnsc1-c1nnc(SCC(=O)c2ccccc2)n1C1CC1	-5	7	2	0	-3	-2	1	i
Cc1cccc(-n2nc([N+](=O)[O-])c(N3CCN(C(=O)c4ccco4)CC3)[n+]2[O-])c1	-5	4	-2	5	-3	1	-1	i
CCc1nn2c(N3CCOCC3)cc(C)nc2c1-c1ccccc1	-7	16	0	-1	.	-5	-1	i
COc1ccc(-c2coc3c(C(=O)Nc4cccnc4)cccc23)c(C)c1	.	-20	3	-26	13	.	.	.
CC(=O)/C(=N/Nc1ccccc1)Sc1nnc(C(O)c2ccccc2)n1-c1ccccc1 (stereo not given)	-4	-5	5	3	-3	-6	-4	i
CCCCCc1cc(=O)oc2c(C(CCN(CC)CC)c3ccc(OC)cc3)c(OC)cc(OC)c12 (stereo not given)	-7	-30	-6	-5	15	13	-3	i
Cc1cc(=O)n2c3ccccc3n(CC(O)CN3CCCCC3)c2c1C#N (stereo not given)	-2	.	-3	0	.	-11	-6	i
C=CCNC(=S)NNC(=O)c1cc(C)nc2ccccc12	14	.	5	1	.	-7	12	i
CC1CCN(C(=O)c2cc(-c3ccccc3O)on2)CC1	-4	.	8	-4	-23	-3	4	i
c1ccc(CSc2ccc(-c3cccs3)nn2)cc1	-9	.	1	-1	-19	5	-28	i
COCCNc1nc(NCc2cccc(OC)c2)c2sccc2n1	.	-30	4	-3	-14	.	.	.
Cc1ccc(Sc2ccc(/C=C3/C(=O)NN(c4ccccc4)C3=O)o2)cc1	10	1	-11	2	.	89*	20	i
O=C(NCCc1ccc(Cl)cc1)c1cc2ccccn2n1	-1	-7	-4	-4	-28	-11	-2	i
CCCCn1c(SCC(=O)NCc2ccco2)nc2c(sc3ccccc32)c1=O	-2	-32	3	-1	-2	-2	-11	i
CCOC(=O)c1[nH]c2ccc(C)cc2c1NC(=O)CN1CCCCC1	5	.	-5	0	-9	1	0	i
COc1cccc(OC)c1OCC(C)CNCC1CCCO1 (stereo not given)	5	.	0	2	.	-6	4	i
CC(=O)Nc1ccc(S(=O)(=O)N(C)CC(=O)Nc2nc3ccccc3[nH]2)cc1	.	-7	3	-3	-16	.	.	.
COc1cc(SC)ccc1C(=O)Nc1ncc(Cl)cc1Cl	29	-22	1	0	.	-13	-3	i
CCN(CC(=O)Nc1c(F)cccc1F)C(=O)C1CCN(S(=O)(=O)c2ccccc2C(=O)OC)CC1	.	14	-6	-2	-5	.	.	.
O=C(O)/C=C/c1ccc(S(=O)(=O)Nc2ccccc2C(=O)Nc2ccc(F)cc2)cc1	0	0	0	4	-9	-13	37	i
CC1CCN(C(=O)CSc2nc3c(c(=O)n2C)SC(C)C3)CC1 (stereo not given)	7	18	0	4	1	-3	6	i
COc1ccc(C(c2c(NC(=O)c3ccco3)sc(C)c2C)N2CCOCC2)cc1 (stereo not given)	.	-7	2	-1	-9	.	.	.
Cc1ccc2nc(/C(C#N)=C\c3ccc(N4CCOCC4)o3)[nH]c2c1	103	.	-102	40	.	6	-16	i	eIF4H FP inh retest=35;PABP polyA inh retest=3
O=C(NCc1ccco1)c1ccc(Cl)c(S(=O)(=O)N2CCOCC2)c1	1	-22	-1	-2	-4	3	4	i
COc1ccc(NC(=O)CNCc2cccs2)c(OC)c1	.	2	1	0	-11	.	.	.
Cc1c(C(=O)NCc2ccc3c(c2)OCCO3)sc(=O)n1Cc1ccccc1C#N	.	-8	11	-2	-35	.	.	.
CC(C)(C)NC(=O)C(c1ccc(O)cc1)N(C(=O)CCC(=O)Nc1ccccn1)c1ccc(F)cc1 (stereo not given)	7	19	-2	1	3	-5	4	i
CCCCOc1cc(=O)[nH]c(=O)[nH]1	-6	-53	3	1	-13	20	-11	i
CCc1nonc1NC(=O)c1oc2cc(C)c(C)cc2c1C	-4	-47	3	-2	-6	-10	-2	i
CN(C)CCCNC(=O)C(=O)NCC1CCCO1 (stereo not given)	-3	-3	6	-2	-10	-22	2	i
Cc1cc(NC(=O)c2ccc(Cn3cc([N+](=O)[O-])cn3)o2)no1	3	.	-1	6	-25	-11	-4	i
COc1ccc(N2C(=O)C(F)(F)C2c2ccccc2F)cc1 (stereo not given)	-11	1	1	-1	-9	.	-4	i
O=S(=O)(N1CCOCC1)N1CCOCC1	13	-1	-1	2	-5	-10	6	i

Continued; it opens with the two that closed the last part.
SMILES	eIF4H FP inh	HIV Env fusion	MT1-MMP act inh	MT1-MMP act inh RFP	UUG fidelity	CSC inhib	PABP polyA inh	Rce1 inh	others
COc1ccc(N2C(=O)C(F)(F)C2c2ccccc2F)cc1 (stereo not given)	-11	1	1	-1	-9	.	-4	i
O=S(=O)(N1CCOCC1)N1CCOCC1	13	-1	-1	2	-5	-10	6	i
COc1ccc(N(CC(=O)Nc2cc(C)on2)S(=O)(=O)c2ccc(Cl)cc2)cc1	-1	.	1	-8	-1	-3	6	i
Fc1ccc(Oc2cnns2)cc1	6	-42	4	4	.	-10	-10	i
CCOC(=O)c1ccc(NC(=O)CSc2nnc(NC(=O)c3ccc(S(=O)(=O)N4CCOCC4)cc3)s2)cc1	11	1	1	2	-15	-8	-1	i
Cc1cc(=O)[nH]c(SCC(=O)Nc2ccccc2C#N)c1C#N	6	-1	-4	1	-15	-9	8	i
CC1(C)CC(=O)c2sc(N3CCCCC3)nc2C1	-6	.	0	2	.	1	0	i
Nc1nc(CN2CCN(Cc3ccccc3)CC2)nc(N2CCCc3ccccc32)n1	6	0	5	2	-28	-9	4	i
Cc1cc(=O)oc2cc(OCC(=O)NC3CCCCC3)c(Cl)cc12	.	-21	-2	-1	-13	0	.	.
CC(C)(C)n1ncc2c(=O)n(CC(=O)NCc3ccccc3Cl)cnc21	-2	.	5	2	-22	0	-8	i
COc1cc(/C=N/NC(=O)c2ccncc2)ccc1OC(=O)c1cccc(F)c1	1	0	0	1	11	11	4	i
CC(CN1CCN(CC(C)C(=O)c2ccccc2)CC1)C(=O)c1ccccc1 (stereo not given)	.	10	-4	2	-3	.	.	.
CCOC(=O)C1(O)CC(C)=NN1C(=O)c1cccc(Br)c1 (stereo not given)	-5	8	8	5	.	-15	-3	i
Clc1ccccc1CSc1nnc(Cn2cnc3ccccc32)n1-c1ccccc1	-2	37	-6	-4	0	2	-4	i
CC(C)c1ccc2[nH]c(O)c(N=NC(=O)c3cccc(S(=O)(=O)Nc4cccc(Cl)c4)c3)c2c1	-3	5	2	1	-9	-13	3	i
COc1ccccc1CN1C(=O)C(=O)N(Cc2cccc(C)c2)C1=O	-2	9	1	2	.	8	-1	i
CC1(Cc2cccc(C(F)(F)F)c2)C(=O)Nc2c(Cl)ccc(Cl)c21 (stereo not given)	.	16	-4	3	-8	.	.	.
Cc1c(C(=O)Nc2ccc(-c3nnc4n3CCCCC4)cc2)oc2ccc(Br)cc12	13	.	-6	-16	-13	-3	11	i
COCCNC(=O)C1(C)CCCN(C(=O)c2cc(C)on2)C1 (stereo not given)	.	3	4	7	-6	.	.	.
COc1ccc(N2CCN(C(=O)COc3ccc(S(=O)(=O)N4CCOCC4)cc3C)CC2)cc1	2	0	2	-4	-5	-14	-5	i
